Screening results (PubChem BioAssay)
rRNA inh HTS: inhibitors of bacterial rRNA selective over humanized ribosomes. 350,000 tested, 1.6% active. GFP signal change (wild-type ribosome), % (no concentration beside the values). E. coli WT GFP vs humanized-ribosome RFP mutants, fluorescence, 24 h; stronger effect = lower value; DMSO median 0, no signal -100;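 active = significant combined selectivity score with lowered wild-type GFP, culture density cut under 30%, mutant RFP and density less affected; inactive = any of these conditions unmet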; note: one replicate is shown; some compounds called inactive have numbers as strong as hits
MLL AF4-AF9 inh: inhibitors of human MLL-AF4/AF9 interaction. inhibition, % at 10 µM. AID 651704. AlphaScreen, biotin-AF4 peptide binding to FLAG-AF9. 350,000 tested, 0.47% active;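 active = every replicate reaching a set inhibition limit, whatever the replicate mean, cut at about 25% in these data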;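 note: 0% = plate neutral control median and 100% = total signal loss; the record names both 10 and 1 µM as test concentration; the first replicate is given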
Target sequence (P42568 whole entry, looked up): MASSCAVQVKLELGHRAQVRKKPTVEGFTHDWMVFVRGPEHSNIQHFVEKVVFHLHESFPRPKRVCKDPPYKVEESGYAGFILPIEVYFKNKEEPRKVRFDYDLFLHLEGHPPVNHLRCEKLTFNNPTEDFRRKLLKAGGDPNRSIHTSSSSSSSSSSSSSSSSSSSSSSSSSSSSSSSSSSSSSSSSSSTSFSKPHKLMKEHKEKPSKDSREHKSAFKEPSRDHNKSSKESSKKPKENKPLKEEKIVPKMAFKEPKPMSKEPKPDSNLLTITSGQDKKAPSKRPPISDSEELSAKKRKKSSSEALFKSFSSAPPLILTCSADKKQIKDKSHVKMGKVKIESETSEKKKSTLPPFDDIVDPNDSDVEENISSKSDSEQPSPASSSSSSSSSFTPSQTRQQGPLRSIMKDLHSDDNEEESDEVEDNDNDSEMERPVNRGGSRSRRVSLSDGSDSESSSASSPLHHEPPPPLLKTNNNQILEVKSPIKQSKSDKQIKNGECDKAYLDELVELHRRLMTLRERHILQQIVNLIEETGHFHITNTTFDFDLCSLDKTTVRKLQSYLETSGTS
rRNA inh HTS OD600: also measured in rRNA inh HTS; calls as there; OD600 change, %; measured here: OD600 growth;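 optical density of the mix in the first replicate; 0 = DMSO median and -100 = no signal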
rRNA inh HTS RFP: further read-out of rRNA inh HTS, marked with its call; RFP signal change, %; measured here: RFP humanized mutant strains;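 first replicate; 0 = DMSO median and -100 = no signal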
The depositor's hits bear a star. This is a subset, so the mix of outcomes need not match the whole.

rRNA inh HTS	rRNA inh HTS OD600	rRNA inh HTS RFP	Structure	MLL AF4-AF9 inh
3	-42	21	O=C(Nc1ccc(F)cc1)N1CCCCN2[C@H](C1)[C@H](c1ccc(C#CC3CC3)cc1)[C@@H]2CO	3.5
-11	-13	-0.9	C[C@H]1CN([C@@H](C)CO)S(=O)(=O)c2ccc(-c3cccc(C#N)c3)cc2O[C@H]1CN(C)Cc1ccccn1	1.0
-1	10	-0.6	C[C@@H]1CN([C@H](C)CO)C(=O)c2cc(NC(=O)Cn3cnnn3)ccc2O[C@@H]1CN(C)C(=O)NC1CCCCC1	-0.8
0	1	-0.2	Cc1noc(C)c1NC(=O)Nc1ccc2c(c1)C(=O)N([C@@H](C)CO)C[C@H](C)[C@@H](CN(C)C(=O)Nc1ccccc1)OCCCC[C@H](C)O2	-1.7
3	1	-0.5	O=C(C[C@H]1C=C[C@@H](NC(=O)Nc2ccccc2F)[C@H](CO)O1)NCc1ccc(F)cc1	-1.6
-1	-10	5.0	Cc1ccc(S(=O)(=O)Nc2ccc3c(c2)C(=O)N([C@H](C)CO)C[C@@H](C)[C@H](CN(C)Cc2ccc(Cl)c(Cl)c2)OCCCC[C@@H](C)O3)cc1	-0.8
2	-4	-1.7	CS(=O)(=O)Nc1ccc2c(c1)[C@H]1C[C@@H](CC(=O)NCc3ccccn3)O[C@H](CO)[C@H]1O2	2.0
1	5	-2.1	O=C(c1cccc(F)c1)N1C[C@@H]2[C@H](c3ccccc31)[C@@H](CO)N2C(=O)c1cccc(F)c1	0.0
-2	-1	-0.9	C[C@@H]1CN([C@@H](C)CO)C(=O)c2cccc(N(C)C)c2O[C@@H]1CN(C)Cc1ccc2c(c1)OCO2	-2.6
1	8	-4.7	COc1cccc(C(NC(C)=O)c2nc(-c3cnc4ccccc4c3)cs2)c1 (configuration not stated)	0.9
-4	-9	0.4	C[C@H](CO)N1C[C@H](C)[C@@H](CN(C)C(=O)C2CCC2)Oc2ncc(-c3ccc(F)cc3)cc2C1=O	-1.3
-4	0	15	COc1cccc(C(=O)Nc2ccc3c(c2)C(=O)N(C)C[C@@H](OC)[C@@H](C)CN(CCc2ccccc2)[C@H](C)CO3)c1	4.5
-19	-25	25	COc1ccccc1-c1ccc2c(c1)C(C)(Cc1cccc(F)c1)C(=O)N2 (configuration not stated)	-1.2
1	0	-1.6	CO[C@H]1CN(C)C(=O)c2cc(NC(=O)c3cc(C)on3)ccc2OC[C@H](C)NC[C@H]1C	-1.2
-2	0	2.0	COc1ccc(NC(=O)N(C)C[C@@H]2OCCCC[C@H](C)Oc3ccc(NC(=O)NC(C)C)cc3C(=O)N([C@@H](C)CO)C[C@@H]2C)cc1	-0.4
0	5	-3.7	C[C@@H]1CN([C@H](C)CO)C(=O)c2cc(-c3ccncc3)cnc2O[C@H]1CN(C)C(=O)c1ccccc1F	-2.9
-3	12	-0.1	COc1ccc2c3c(n(C)c2c1)[C@@H](CO)N(C(=O)C1CCC1)CC31CCN(C(=O)c2ccncc2)CC1	1.9
-23	-43	9.8	O=C(C[C@H]1CC[C@H]2[C@@H](COC[C@H](O)CN2C(=O)Nc2cccc(F)c2)O1)NCc1ccccc1Cl	-3.3
-4	1	-0.4	O=C(c1cnccn1)N1CC(=O)N2[C@H](CO)[C@@H](c3ccc(/C=C/c4ccccc4)cc3)[C@H]2C1	8.2
5	8	-4.1	C/C=C/c1cnc2c(c1)C(=O)N([C@@H](C)CO)C[C@H](C)[C@H](CN(C)C(=O)c1cccc(F)c1)O2	-2.5
6	8	1.4	CC(C)CC#Cc1cnc2c(c1)C(=O)N([C@H](C)CO)C[C@H](C)[C@H](CN(C)Cc1ccccc1)O2	-5.0
-4	1	1.4	C[C@H](CO)N1C[C@H](C)[C@H](CN(C)S(=O)(=O)c2ccccc2)Oc2ccc(NC(=O)C3CCCCC3)cc2CC1=O	-3.0
3	5	-0.5	COc1ccc(S(=O)(=O)Nc2ccc3c(c2)CC(=O)N([C@H](C)CO)C[C@H](C)[C@H](CN(C)C(=O)NC(C)C)O3)cc1	-0.4
-21	-23	0.5	Cc1ccc(S(=O)(=O)N2CCN(C(=O)C3CCN(c4ncnc5sc(C)c(C)c45)CC3)CC2)c(C)c1	1.6
3	3	-0.2	Cc1noc(C)c1NC(=O)N(C)C[C@@H]1Oc2c(NC(=O)Nc3ccc(F)cc3)cccc2C(=O)N([C@H](C)CO)C[C@H]1C	0.8
2	5	-2.0	COc1ccc2c3c(n(C)c2c1)[C@H](CO)N(C(=O)c1cccnc1)CC31CN(S(C)(=O)=O)C1	-0.4
1	-5	-0.9	C[C@@H]1CN([C@@H](C)CO)C(=O)c2cc(NS(=O)(=O)c3ccccc3)ccc2O[C@@H](C)CCCCO[C@H]1CN(C)C(=O)Nc1ccc(C(F)(F)F)cc1	-1.8
3	1	-3.9	C[C@@H]1CN([C@H](C)CO)C(=O)c2cc(C#CC3CC3)cnc2O[C@@H]1CN(C)Cc1ccccn1	-2.1
8	12	4.2	Cc1cccc(CN2CCN(C3CN(Cc4ccc([N+](=O)[O-])cc4)S(=O)(=O)C3)CC2)c1 (configuration not stated)	-5.5
-3	-4	3.8	COc1ccc(CN(C)C[C@H]2OCCCC[C@H](C)Oc3ccc(NC(=O)Nc4ccc(OC)cc4)cc3C(=O)N([C@@H](C)CO)C[C@H]2C)cc1	-4.1
-4	10	-3.3	Cc1cccc(S(=O)(=O)N2CC[C@@H]3[C@H](CO)N(C)c4ccc(-c5cccc(C#N)c5)cc4[C@@H]32)c1	-3.4
2	13	0.6	OC(CC(O)c1ccccc1)c1ccccc1 (configuration not stated)	0.9
18	15	4.4	O=C(NC1CCCC1)c1nc(-c2ccco2)oc1-c1ccccc1	-0.2
-6	-6	-3.2	C[C@@H]1CN([C@H](C)CO)C(=O)c2cccc(NC(=O)Nc3cccc4ccccc34)c2O[C@@H]1CN(C)C(=O)Nc1ccc(F)cc1	7.5
2	3	0.5	N#C[C@H]1[C@@H](c2ccc(-c3ccncc3)cc2)[C@@H](CO)N1C(=O)C1CCCC1	-1.1
-2	0	0.3	Cc1ccc(S(=O)(=O)N(C)C[C@H]2Oc3c(NC(=O)c4ccc(-c5nccs5)cc4)cccc3C(=O)N([C@@H](C)CO)C[C@H]2C)cc1	-2.6
2	4	-4.6	CO[C@@H]1CN(C)C(=O)c2cc(NC(=O)c3ccccc3F)ccc2OC[C@@H](C)N(CC2CCOCC2)C[C@@H]1C	-2.4
-3	-4	-0.5	Cc1noc(C)c1NC(=O)N(C)C[C@@H]1OCCCC[C@@H](C)Oc2ccc(NC(=O)Nc3ccc(F)cc3)cc2C(=O)N([C@@H](C)CO)C[C@H]1C	-2.3
-20	-44	-3.6	CC(=O)C1(O)CCC2C3CC(C)C4=CC(=O)CCC4(C)C3CCC21C (configuration not stated)	-0.5
-3	5	2.1	C[C@H]1CN([C@@H](C)CO)C(=O)c2cccc(NC(=O)CCCCCC(=O)Nc3ccccc3N)c2O[C@H]1CN(C)Cc1ccc(-c2ccccc2)cc1	0.4
1	3	-2.2	C[C@@H]1CN([C@H](C)CO)C(=O)CCCn2cc(nn2)CO[C@H]1CN(C)Cc1cccc2c1OCCCO2	-2.1
1	2	-2.0	CCCN1C[C@@H](C)[C@@H](OC)CN(C)C(=O)c2cc(NC(=O)c3cccc(F)c3)ccc2OC[C@H]1C	0.0
3	7	-1.7	CCNC(=O)C[C@@H]1CC[C@H]2[C@H](COc3ccc(NS(C)(=O)=O)cc3C(=O)N2C)O1	-2.8
12	12	1.0	O=C(COC(=O)c1cnccn1)Nc1c(Cl)cc(Cl)cc1Cl	-2.1
0	16	0.8	COc1ccc(S(=O)(=O)N2CCCCC2c2cc(C(=O)N3CCOCC3)no2)cc1 (configuration not stated)	1.0
-38	-43	-4.6	COc1cccc(S(=O)(=O)N2CCCCN3[C@@H](CO)[C@H](c4ccc(-c5ccccc5)cc4)[C@@H]3C2)c1	-2.2
3	11	1.8	O=C(C[C@@H]1C[C@@H]2c3cc(NC(=O)C4CCOCC4)ccc3O[C@@H]2[C@H](CO)O1)NC1CCCC1	-1.6
-3	4	-0.4	COc1cccc(S(=O)(=O)N2C[C@@H](O)COC[C@@H]3O[C@@H](CC(=O)Nc4ccccc4)CC[C@H]32)c1	-2.0

5 compounds from above with just rRNA inh HTS OD600, rRNA inh HTS and rRNA inh HTS RFP.
| SMILES | rRNA inh HTS OD600 | rRNA inh HTS | rRNA inh HTS RFP |
| --- | --- | --- | --- |
| O=C(C[C@@H]1C[C@@H]2c3cc(NC(=O)C4CCOCC4)ccc3O[C@@H]2[C@H](CO)O1)NC1CCCC1 | 11 | 3 | 1.8 |
| C[C@@H]1CN([C@H](C)CO)C(=O)CCCn2cc(nn2)CO[C@H]1CN(C)Cc1cccc2c1OCCCO2 | 3 | 1 | -2.2 |
| CCCN1C[C@@H](C)[C@@H](OC)CN(C)C(=O)c2cc(NC(=O)c3cccc(F)c3)ccc2OC[C@H]1C | 2 | 1 | -2.0 |
| COc1cccc(S(=O)(=O)N2C[C@@H](O)COC[C@@H]3O[C@@H](CC(=O)Nc4ccccc4)CC[C@H]32)c1 | 4 | -3 | -0.4 |
| COc1ccc(S(=O)(=O)N2CCCCC2c2cc(C(=O)N3CCOCC3)no2)cc1 (configuration not stated) | 16 | 0 | 0.8 |

2 records picked at random from the list so far, as already listed:
rRNA inh HTS	rRNA inh HTS OD600	rRNA inh HTS RFP	Structure	MLL AF4-AF9 inh
1	3	-2.2	C[C@@H]1CN([C@H](C)CO)C(=O)CCCn2cc(nn2)CO[C@H]1CN(C)Cc1cccc2c1OCCCO2	-2.1
3	11	1.8	O=C(C[C@@H]1C[C@@H]2c3cc(NC(=O)C4CCOCC4)ccc3O[C@@H]2[C@H](CO)O1)NC1CCCC1	-1.6

Continued:
rRNA inh HTS	rRNA inh HTS OD600	rRNA inh HTS RFP	Structure	MLL AF4-AF9 inh
0	4	-0.9	O=C(C[C@@H]1CC[C@@H](NC(=O)Nc2ccc(F)cc2)[C@@H](CO)O1)NCc1cccc(F)c1	-1.0
2	1	-0.2	C[C@@H]1CN([C@@H](C)CO)C(=O)c2cccc(NS(=O)(=O)c3ccccc3)c2O[C@@H]1CN(C)S(=O)(=O)c1ccccc1	-1.4
2	0	-0.6	COc1ccc(NC(=O)N(C)C[C@H]2Oc3c(NS(=O)(=O)c4cn(C)cn4)cccc3C(=O)N([C@@H](C)CO)C[C@H]2C)cc1	-3.0
0	0	-5.6	Cc1ccc(S(=O)(=O)N(C)C[C@H]2OCc3cn(nn3)CCCC(=O)N([C@@H](C)CO)C[C@H]2C)cc1	3.4
-4	-9	2.5	COc1cccc(NC(=O)N(C)C[C@@H]2Oc3ncc(C4=CCCCC4)cc3C(=O)N([C@@H](C)CO)C[C@H]2C)c1	1.4
-2	-2	-2.3	C[C@@H]1CN([C@H](C)CO)C(=O)c2cc(C#Cc3ccc(F)cc3)cnc2O[C@H]1CN(C)C	12
-2	-6	-1.7	O=C(C[C@@H]1C[C@@H]2c3cc(NC(=O)Nc4ccccc4)ccc3O[C@@H]2[C@H](CO)O1)NCC1CC1	-2.8
5	0	-2.1	C[C@@H]1CN([C@H](C)CO)S(=O)(=O)c2ccc(C#C[C@@H](C)O)cc2O[C@@H]1CN(C)Cc1cccnc1	2.3

Three compounds out of the list above, ordered by the value under rRNA inh HTS OD600, largest number first.
rRNA inh HTS	rRNA inh HTS OD600	rRNA inh HTS RFP	Structure	MLL AF4-AF9 inh
0	4	-0.9	O=C(C[C@@H]1CC[C@@H](NC(=O)Nc2ccc(F)cc2)[C@@H](CO)O1)NCc1cccc(F)c1	-1.0
5	0	-2.1	C[C@@H]1CN([C@H](C)CO)S(=O)(=O)c2ccc(C#C[C@@H](C)O)cc2O[C@@H]1CN(C)Cc1cccnc1	2.3
-4	-9	2.5	COc1cccc(NC(=O)N(C)C[C@@H]2Oc3ncc(C4=CCCCC4)cc3C(=O)N([C@@H](C)CO)C[C@H]2C)c1	1.4

The list continues.
rRNA inh HTS	rRNA inh HTS OD600	rRNA inh HTS RFP	Structure	MLL AF4-AF9 inh
1	7	-1.2	CCCN1C[C@@H](C)[C@H](OC)CN(C)C(=O)c2cc(NC(=O)C3CC3)ccc2OC[C@@H]1C	-2.8
4	7	-4.4	O=C(C[C@@H]1C=C[C@H](NC(=O)C2CCOCC2)[C@H](CO)O1)NCc1ccccc1Cl	-4.1
-5	-10	3.0	C[C@@H]1CN([C@@H](C)CO)C(=O)c2cc(C#Cc3ccccc3F)cnc2O[C@H]1CN(C)C(=O)Cc1cccnc1	0.1
2	6	-0.2	C[C@H]1CN([C@@H](C)CO)C(=O)Cc2cc(NC(=O)Nc3ccc(F)cc3)ccc2O[C@@H]1CN(C)C	-0.4
-1	6	-0.1	CCCN1C[C@@H](C)[C@H](OC)CN(C)C(=O)c2ccc(NC(=O)c3ccccc3)cc2OC[C@@H]1C	-1.0
1	-2	-0.6	COc1ccc(CNC(=O)C[C@@H]2CC[C@H](NC(=O)c3ccc4c(c3)OCO4)[C@H](CO)O2)cc1	-1.8
-1	-4	-1.5	COCC(=O)N(C)C[C@H]1Oc2ncc(C3=CCCC3)cc2C(=O)N([C@@H](C)CO)C[C@@H]1C	-13
2	2	0.6	O=C([C@H]1[C@H](CO)[C@H]2Cn3c(ccc(-c4ccncc4)c3=O)[C@H]2N1CCC(F)(F)F)N1CCOCC1	-26
